High-throughput results deposited in PubChem BioAssay by Center for Chemical Genomics, University of Michigan.
TAR Tat displ: HIV-1 TAR-Tat binding disruption. hit rate 0.6% among 100,000. HIV-1 TAR RNA, Tat peptide displacement FRET; stronger effect = higher value. z-score (no concentration beside the values). AID 1259389;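 also: score is relative to mean and SD of negative controls; some compounds called inactive have numbers as strong as hits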
CDC25B CDK2 inh: human CDC25B-CDK2/CyclinA binding inhibition | P30305+P24941 | HTRF CDC25B-CDK2/CyclinA binding, anti-His/anti-Flag; stronger effect = higher value | z-score (no concentration beside the values) | hit rate 0.72% among 94,000 | AID 1259370;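 also: score is relative to mean and SD of negative controls; strong numbers were not always called active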
Active calls of the source: *; · = no result given.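 The calls were made as follows: active = z-score from 3 up in half or more of its runs; inactive = the rest.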

Each structure is followed by: TAR Tat displ	CDC25B CDK2 inh
COC(=O)c1csc(S(=O)(=O)Nc2ccc(Cl)cc2)c1OC
 : ·	0.7
O=C1c2ccc3c4c(ccc(c24)C(=O)N1c1ccccc1)C(=O)N(c1ccccc1)C3=O
 : ·	-2.52
CCCSCCCNC(=O)Cn1ncc2c3ccccc3n(C)c2c1=O
 : -0.26	-0.21
Cc1ccc(C(=O)Nc2cc(C#N)c3[nH]c4ccccc4n3c2=O)cc1
 : -5.79	-1.58
CCOc1ccccc1NC(=O)c1c(-c2ccccc2Cl)noc1C
 : ·	-0.36
O=C(Cn1cnc(S(=O)(=O)N2CCc3ccccc32)c1)N1CCOCC1
 : 2.35	·
Nc1nc2c(c(=O)[nH]1)N(C=O)C(CNc1ccc(C(=O)N[C@@H](CCC(=O)O)C(=O)O)cc1)CN2 (some centres undefined)
 : 1.68	·
c1cnc2c(c1)nc(-c1ccncc1)n2CCN1CCNCC1
 : 0.88	·
Cn1c(=O)n(C)c2cc(CNCc3ccccc3)ccc21
 : 0.69	-1
CC(C)N(C(=O)c1noc2c1COc1ccccc1-2)C1CCCCC1
 : 0.46	-0.74
CCC(=O)c1ccc2c(c1)N(CCCN(C)C)c1ccccc1S2
 : ·	-1.25
O=C(CSc1ccc(F)c(Cl)c1)c1ccc2c(c1)OCCO2
 : ·	-1.98
O=C(COCc1cc(-c2ccco2)on1)NCC1CCCO1 (centres undefined)
 : 2.16	·
O=C(Nc1c(C(=O)Nc2ccccc2)oc2ccccc12)c1csnn1
 : -0.65	-1.42
O=C1CSC(Cc2cccs2)=N1
 : ·	-0.13
COc1ccc(Cl)cc1-n1nnc(-c2nc(-c3ccc4c(c3)OCO4)no2)c1C
 : -0.78	·
COc1ccc(-c2csc3ncnc(NCCc4ccco4)c23)cc1
 : 1.35	·
O=C(Nc1nnc(SCc2cc(=O)c3ccccc3[nH]2)s1)c1ccccc1
 : 0.75	·
COc1ccccc1-c1nn2c(-c3ccncc3)nnc2s1
 : -0.57	0.08
CCOC(=O)C1=C(C)NC2=C(C(=O)C(C(=O)OC)C(C)C2)C1c1ccc(O)c(OC)c1 (centres undefined)
 : 1.1	-0.86
O=C(CC1(O)C(=O)N(CCc2ccccc2)c2ccc(Br)cc21)c1cccnc1 (centres undefined)
 : -0.53	-1.18
O=C1c2ccccc2C(Nc2cc(F)ccc2F)N1c1cccnc1 (centres undefined)
 : 0.79	-0.15
O=C(NCCN1CCCC1)Nc1ccc(Cl)cc1
 : 0.98	0.58
NC(=O)c1cc(S(=O)(=O)N2CCN(c3ccccc3F)CC2)cs1
 : 1.51	·
Cn1nc(C(=O)Nc2ccc(F)cc2)c2c1-c1ccccc1S(=O)(=O)C2
 : 1.58	-0.42
Cc1ccnc(NC(c2ccc3cccnc3c2O)c2sccc2C)c1 (centres undefined)
 : ·	-1.61
Cc1nc2c3c(-c4ccc(C(C)C)cc4)nc(N4CCC(C)CC4)nc3nn2c(C)c1CCC(=O)O
 : -0.51	-0.23
CCCCC(=O)OCc1cc(=O)n2c3c(sc2n1)CCCC3
 : 1.09	·
CC(=O)Nc1ccc(S(=O)(=O)[C@H]2CS(=O)(=O)C[C@@H]2NC2CC2)cc1
 : -0.22	-1.68
COc1ccc(C)cc1NC1=NS(=O)(=O)C(c2ccc(C(C)C)cc2)=C1C
 : -0.76	-1.71
Cc1ncc(-c2ccc(S(=O)(=O)N3CCCCC3)cc2)o1
 : 1.17	·
COc1cc(-c2csc(N)n2)ccc1O
 : -2.1	-2.96
COc1cc(CN2CCN(Cc3cccc(F)c3)CC2)cc2c1OCO2
 : ·	1.52
O=C(NCCCN=C1NS(=O)(=O)c2ccccc21)c1ccncc1
 : ·	-0.81
C=CCNc1nc(NCc2ccc(C)cc2)c2cnn(C)c2n1
 : 2.03	·
COC(=O)C[C@@H]1C2(C)C(=O)[C@@H](CC3=C4CC(O)O[C@@H](c5ccoc5)[C@]4(C)CCC32)[C@@H](O)C1(C)C (some centres undefined)
 : 1.86	·
N#CC1=C(N)OC2=C(C(=O)CCC2)C1c1ccc(OC(=O)c2ccccc2Cl)cc1 (centres undefined)
 : ·	0.1
CCCCN(C)C(=O)c1sc2ncn(CC(=O)NCCC)c(=O)c2c1C
 : ·	-1.28
O=c1cc(CSc2ncn[nH]2)nc2sc3c(n12)CCCC3
 : 0.96	·
Cc1ccccc1/C=C/c1nn2c(-c3ccncc3)nnc2s1
 : -0.93	-1.16
CC(C)C(NS(=O)(=O)c1ccc2c(c1)oc(=O)n2C)C(=O)Nc1ccc(F)c(F)c1 (centres undefined)
 : ·	0
O=C(O)CN1C(=O)c2ccccc2S1(=O)=O
 : 3.4	-1.86
O=S(=O)(c1c(Cl)sc(Cl)c1Br)N1CCCC1
 : ·	-0.69
CCn1c(CN2CC(C)OC(C)C2)nc2c1c(=O)n(C)c(=O)n2C (centres undefined)
 : -0.52	-0.68
Cn1ccc2cc(S(=O)(=O)N3CCCC(C(=O)NCCN4CCCC4)C3)ccc21 (centres undefined)
 : -0.28	·
CC(C)(C)C(=O)N1NC(=Nc2ccccc2)SC1(C)C
 : ·	-2.51
CN1C(=O)c2ccc(-c3nc4ccccc4c(=O)o3)cc2C1=O
 : ·	-1.2
CCOc1ccccc1Oc1nc(C)nc2c1oc1ccccc12
 : -1.79	·
Cc1occc1C(=O)C(C#N)=C(NCc1cccnc1)NCc1cccnc1
 : ·	-0.99
Cc1ccc(C)c(NC2c3ncccc3C(=O)N2Cc2ccco2)c1 (centres undefined)
 : 0.86	·
CCCCCCc1nc2c(=O)[nH]c3ccccc3c2o1
 : 0.41	-1.25
COCCOC(=O)C1=C(C)NC2=C(C(=O)CC(C)(C)C2)C1c1ccc(OC)cc1OC (centres undefined)
 : -0.37	4.82
Cc1csc(NC(=O)c2cnc3sccn3c2=O)n1
 : ·	-1.56
COc1ccc(C(=O)CC2(O)C(=O)Nc3ccc(C)cc32)cc1OC (centres undefined)
 : ·	-1.1
Cc1cc(C)c2c(n1)sc1c(Sc3nccn3C)ncnc12
 : ·	-0.28
Cc1cccc(-n2nc3c(c2NC(=O)C(C)C)CSC3)c1
 : ·	-1.92
COCc1cc(CN2CCN(C)CC2)c(O)c2ncccc12
 : 2.21	1.74
N#CC1=C2SCN(c3ccccc3F)CN2C(=O)CC1c1c(F)cccc1Cl (centres undefined)
 : -1.99	-1.09
C=CCOC(=O)C1C(c2ccccc2)c2c([nH][nH]c2=O)CC1(C)O (centres undefined)
 : 1.85	0.48
CN(C)CCCn1cnc2scc(-c3ccccc3)c2c1=O
 : -0.27	-1.53

Other structures:
Each structure is followed by: TAR Tat displ	CDC25B CDK2 inh
COc1ccc(S(=O)(=O)n2nc(-c3ccc(C(C)(C)C)cc3)cc2N)cc1OC
 : 0.9	-1.1
CCOC(=O)N1CCN(C(=O)c2c(C)oc3ncnc(N4CCOCC4)c23)CC1
 : 0.45	-0.38
CN(Cc1ccco1)C(=O)c1cnc2sc3c(n2c1=O)CCCC3
 : 0.5	·
CCOc1ccc(C2N3CC4(C)CN2CC(C)(C3)C4O)cc1OC (centres undefined)
 : 1.33	-1.47
COc1ccc(OC)c(S(=O)(=O)N(C(=O)C(C)C)c2ccc3oc(=O)sc3c2)c1
 : 1.84	-1.47
CC(C)NC(=O)CN1CCSc2ccccc21
 : 0.18	·
CCC(NS(=O)(=O)c1ccc2c(c1)CC(C)N2C(=O)C1CC1)c1cccs1 (centres undefined)
 : 0.83	·
CC1(C)CC(=O)c2cnc3c(C(=O)N4CCN(C(=O)c5ccco5)CC4)cnn3c2C1
 : 1.01	·
O=C(N=Nc1c(O)n(CN2CCCCC2)c2ccc(Br)cc12)c1ccncc1
 : ·	-2.15
CCn1c[n+](CC(O)COc2ccc(F)cc2)c2cc(C)c(C)cc21 (centres undefined)
 : 0.5	-1.17
CC(=O)N1c2ccc(S(=O)(=O)N(C)CC(=O)NC3CCCc4ccccc43)cc2CC1C (centres undefined)
 : -1	·
Cc1ccc2nc(Nc3ccc(O)cc3)c3nnnn3c2c1
 : 0.83	·
COc1cc(NS(=O)(=O)c2cc(-c3cnc(C4CC4)o3)ccc2C)cc(OC)c1
 : 1.33	·
COc1ccc(-c2cc3nc(N)cc(=O)n3[nH]2)cc1
 : 0.88	2.64
COc1ccc(-c2nnc(SCCOc3cccc(C)c3)o2)cc1OC
 : 0.66	0.51
CCCCn1nnc2c(sc3nc(C)c(Br)c(COC)c32)c1=O
 : 1.71	0.09
C=CCN1C(=O)C(O)(CC(=O)c2ccc(C)s2)c2cc(Br)ccc21 (centres undefined)
 : -0.67	-2.22
O=C(c1sc2cccc(Cl)c2c1Cl)N(Cc1ccco1)C1CCS(=O)(=O)C1 (centres undefined)
 : -2.8	0.58
Cc1cc(S(=O)(=O)[C@H]2CS(=O)(=O)C[C@@H]2N2CCN(c3ccccc3F)CC2)ccc1F
 : 0.82	-1.25
Cc1ncc(-c2ccc(C)c(S(=O)(=O)Nc3ccc(Br)c(C)c3)c2)o1
 : 0.02	·

Reformatted field by field: part of the list above.
COc1cc(NS(=O)(=O)c2cc(-c3cnc(C4CC4)o3)ccc2C)cc(OC)c1
  TAR Tat displ: 1.33; CDC25B CDK2 inh: ·
COc1ccc(-c2cc3nc(N)cc(=O)n3[nH]2)cc1
  TAR Tat displ: 0.88; CDC25B CDK2 inh: 2.64
COc1ccc(-c2nnc(SCCOc3cccc(C)c3)o2)cc1OC
  TAR Tat displ: 0.66; CDC25B CDK2 inh: 0.51
Cc1ncc(-c2ccc(C)c(S(=O)(=O)Nc3ccc(Br)c(C)c3)c2)o1
  TAR Tat displ: 0.02; CDC25B CDK2 inh: ·

(continued)
Each structure is followed by: TAR Tat displ	CDC25B CDK2 inh
COC(=O)c1ccc2c(=O)n3nc(NCC4CCCO4)sc3nc2c1 (centres undefined)
 : 0.69	·
COc1ccc(-c2nnc3ccc(SCc4ccc(F)cc4)nn23)cc1
 : ·	-1.96
O=S(=O)(c1cc(Br)c(Cl)s1)N1CCC(Cc2ccccc2)CC1
 : ·	-1.78
CCC(C(=O)N1CCOCC1)n1c(C(=O)OC)cc2sc(C)cc21 (centres undefined)
 : 0.21	-1.69
CCOC(=O)C1=C(C)Nc2nc(SCc3ccc(C(=O)O)cc3)nn2C1c1ccc(OC)cc1 (centres undefined)
 : 0.15	1.67
COc1ccc(-c2nc(SCc3cc(=O)n4nc(CC(C)C)sc4n3)n[nH]2)cc1
 : 0.88	·
CCCC(C)N1CCN(S(=O)(=O)c2cc3[nH]c4c(c3cc2C)C(=O)CC(C)(C)C4)CC1 (centres undefined)
 : -0.17	·
O=C(CSCC(=O)N1CCCC1)Nc1nc(-c2cccs2)cs1
 : -0.28	·
O=C(NC(=S)Nc1ccc2oc(-c3cccc4ccccc34)nc2c1)c1ccco1
 : ·	-2.42
N#Cc1cc2c(=O)n3ccccc3nc2n(-c2nnc(SCc3ccccc3)s2)c1=O
 : -0.41	-1.78
COc1ccc(Nc2nc(-c3ccc(OC)c(OC)c3)no2)c(OC)c1
 : 0.91	·
CCCc1nc(SCc2cc(=O)n3nc(C)sc3n2)n[nH]1
 : 0.25	·
O=C1CSC(N2CCOCC2)=N1
 : ·	0.48
Cc1nc(C)c(C(=O)Nc2ccc(N(C)C)cc2)s1
 : 0.53	-2.62
CCCCCC1OCC(C)(C(=O)O)CO1 (centres undefined)
 : ·	1.35
c1sc2c(c1CN1CCN(C3CCCCC3)CC1)CCCC2
 : 1.02	·
Cc1ccc(C(=O)Nc2cccc(C(F)(F)F)c2)o1
 : ·	-0.11
O=C(O)c1c(-c2ccccc2)oc2ccc(O)cc12
 : 1.33	-2.08
O=C(CN1C(=O)c2ccccc2C1=O)Oc1ccc(Cl)cc1
 : ·	0.82
CC(=O)N1CCc2c(sc3nc(SCCC(C)C)n(Cc4ccco4)c(=O)c23)C1
 : -0.14	0.17

A run of entries of the results above:
Each structure is followed by: TAR Tat displ	CDC25B CDK2 inh
c1sc2c(c1CN1CCN(C3CCCCC3)CC1)CCCC2
 : 1.02	·
Cc1ccc(C(=O)Nc2cccc(C(F)(F)F)c2)o1
 : ·	-0.11
O=C(O)c1c(-c2ccccc2)oc2ccc(O)cc12
 : 1.33	-2.08
O=C(CN1C(=O)c2ccccc2C1=O)Oc1ccc(Cl)cc1
 : ·	0.82
CC(=O)N1CCc2c(sc3nc(SCCC(C)C)n(Cc4ccco4)c(=O)c23)C1
 : -0.14	0.17

Going on with the list:
Each structure is followed by: TAR Tat displ	CDC25B CDK2 inh
Cc1cc(C)c2c(n1)nn1c(C)c(CCC(=O)N3CCCCC3)c(C)nc21
 : 0.91	-0.04
Cc1cc(C)c2c(-n3cccc3)c(C(=O)N3CCC(C(N)=O)CC3)sc2n1
 : -2.97	-0.73
O=C(C1c2ccccc2C(=O)N(C2CCCC2)C1c1cccs1)N1CCc2ccccc2C1 (centres undefined)
 : 1.81	·
O=C(Nc1ccc2oc(-c3ccccc3)nc2c1)c1ccco1
 : ·	0.25
Cc1sc(-n2cccc2)c(C(C)NC(=O)Nc2cccc(Br)c2)c1C (centres undefined)
 : -0.33	2.71
Cc1c(CNC2CCCC2)c(C(=O)O)c(C)n1Cc1ccc(F)cc1Cl
 : 2.91	-1.34
CCN(CC)CCSc1nnnn1-c1ccccc1
 : ·	-3.53
Cc1ccc(S(=O)(=O)NC(C)c2nc(-c3cccc(C)c3)no2)cc1 (centres undefined)
 : -0.2	-0.55
c1cncc(-c2cc(N3CCOCC3)c3ccccc3n2)c1
 : ·	-1.44
Cc1c(NS(=O)(=O)c2ccccc2Cl)c(-n2cnnc2)nn1C
 : -1.35	-2.5
CC(=O)OC1=C(C(=O)c2ccccc2)N(C)S(=O)(=O)c2ccccc21
 : ·	-0.61
O=C(Cc1noc2ccccc12)Nc1nccs1
 : 0.4	0.13
Cn1nnnc1SCCCNCc1c(F)cccc1Cl
 : 1.35	-1.29
Nc1ncnc2c1ncn2[C@@H]1O[C@H](COP(=O)(O)OP(=O)(O)OP(=O)(O)OP(=O)(O)OC[C@@H]2O[C@H](n3cnc4c(N)ncnc43)C(O)[C@@H]2O)[C@H](O)C1O (some centres undefined)
 : ·	-0.1
